# Assay outcomes from PubChem.
# TRPV1 PAM: HTS Assay for Compounds that Act as Potentiators of the Vanilloid Receptor 1; AID 540277, 2011; 320,000 tested, 0.02% active; TRPV1-expressing cells, Fluo-8 calcium influx, capsaicin EC20 potentiation; host cell line not named in the record; control for the full effect not named in the record; potentiation, % at 8.33 µM; Transient receptor potential cation channel subfamily V member 1 (Homo sapiens), Q8NER1; active means potentiation above 80%; inconclusive means 30% to 80%; inactive means below 30%; note: 0% is about no effect
#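 Cells expressing TRPV1 were dye-loaded with Fluo-8 and read kinetically: 10 s baseline, 3 min after compound (agonist portion), then 2 min after EC20 capsaicin (allosteric enhancer portion). Calcium-bound dye fluorescence at 480/520 nm.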
# gsp agonist: qHTS for Agonist of gsp, the Etiologic Mutation Responsible for Fibrous Dysplasia/McCune-Albright Syndrome: qHTS. 340,000 tested, 0.13% active. Potency, µM (top dose mostly 76.9 µM), without a hit: top-dose activation (cAMP increase), hits mostly activators. gsp mutant cells, cAMP HTRF, 30 min; control for the full effect not named in the record. AID 624287, 2012; active = well fitted activation curve with a large enough effect; inconclusive = small, poorly fitted or top-dose-only effect, or another doubt; inactive = no such curve, though single readings can be large or run the other way; cell line not stated here;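 note: phosphodiesterase inhibitor Ro 20-1724 added with compounds to block cAMP breakdown; potency is the fitted concentration of half-maximal effect; nearly all actives have a fitted effect of over 60% in size; about a fifth of the inactives were tested at one dose only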
#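 Cells in DMEM/10% FBS with G418 were pretreated with compounds in DMSO plus […] (300 uM stock) for 30 min at 37C. cAMP was measured by HTRF (cAMP-d2 plus anti-cAMP antibody-K) after 30 min at room temperature.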
# Sfp inh: qHTS Assay for Inhibitors of Bacillus subtilis Sfp phosphopantetheinyl transferase (PPTase). 4'-phosphopantetheinyl transferase ffp (Bacillus subtilis), Q9F4F7. Biochemical Sfp PPTase activity, qHTS. Potency, µM, without a hit: max response, negative = inhibition, most hits filed as inhibitors. 310,000 tested, 3.5% active; active = well fitted inhibition curve with a large enough effect; inconclusive = small, poorly fitted or top-dose-only effect, or another doubt; inactive = no such curve, though single readings can be large or run the other way;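 note: the enzyme is Sfp with the accession as filed and its product quenches rhodamine fluorescence; potency is the fitted concentration of half-maximal effect; 0% = enzyme reaction without inhibitor and -100% = no enzyme wells; top concentration of the series not given in the record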
#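 After 15 min at room temperature with compound, 15 nM Sfp received 5 uM rhodamine-CoA plus 12.5 uM BHQ-2-ybbR (50 mM Hepes pH 7.6, 10 mM MgCl2). Rate came from the fluorescence difference over 30 min, ex 525/em 598 nm.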
# ClpP mod: qHTS Assay for Activators of ClpP | ATP-dependent Clp protease proteolytic subunit (Bacillus subtilis (strain 168)), P80244 | purified B. subtilis ClpP, FRET peptide cleavage, 20 min | Potency, µM (highest dose often 57.5 µM), for inactives: at the top dose activity change, negative = active | 340,000 tested, 1.9% active; active = well fitted falling curve with a large enough effect; inconclusive = small, poorly fitted or top-dose-only effect; inactive = no such curve, though single readings can be large or run the other way; note: potency is the fitted concentration of half-maximal effect; the source files actives as falling curves though it sought activators and does not explain the sign; nearly all actives have a fitted effect of over 65% in size; many hits overshoot -100%
# Target sequence (P80244 whole entry, looked up): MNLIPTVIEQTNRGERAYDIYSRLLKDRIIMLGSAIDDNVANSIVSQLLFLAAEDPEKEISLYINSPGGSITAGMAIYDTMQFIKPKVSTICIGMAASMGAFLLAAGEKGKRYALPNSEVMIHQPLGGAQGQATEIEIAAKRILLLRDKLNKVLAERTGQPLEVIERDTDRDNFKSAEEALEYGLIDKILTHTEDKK
#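 FRET quenching reversal measured ClpP activation: 10 microg/mL B. subtilis ClpP at pH 8 with the FRET-FV decapeptide, read at 430 nm after 320 nm excitation. The 20-min minus 0-min signal was scaled between DMSO/no-enzyme wells and ADEP (5.8 microM final).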
# gsp antag: qHTS for Antagonists of gsp, the Etiologic Mutation Responsible for Fibrous Dysplasia/McCune-Albright Syndrome: qHTS; gsp-mutant cells, cAMP HTRF, 30 min; control for the full effect not named in the record; Potency, µM (top dose mostly 76.9 µM), for the others: at the top dose activity change, negative = inhibition, most hits filed as inhibitors; 340,000 tested, 0.4% active; AID 624288, 2012; active = falling curve of any shape with a large fitted effect; inconclusive = falling curve, mostly with a smaller effect; inactive = flat or rising curve; cell line not stated here;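 note: intracellular cAMP measured with PDE inhibitor Ro 20-1724 present during compound exposure; potency is the fitted concentration of half-maximal effect; % is set by controls: 0 for no effect and ±100 for the full control effect; nearly all actives have a fitted effect of over 65% in size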
#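 Cells in G418 medium, seeded 16-24 h, 37C; buffer exchange to DPBS + 1 mM CaCl2, 0.5 mM MgCl2, 0.05% BSA; cpds in DMSO + […] (300 uM stock), 30 min 37C; HTRF cAMP detection.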
# Menin MLL FP FL: qHTS Assay for Inhibitors Targeting the Menin-MLL Interaction in MLL Related Leukemias: Competition With Fluorescein Labeled MLL-derived Peptide; Fluorescence polarization, fluorescein-MLL peptide displacement from menin; FP activity change, % at 61.4 µM; 290,000 tested, under 10 active; AID 1766, 2009; inconclusive = falling polarisation curve, or a change in total fluorescence; inactive = total fluorescence flat and polarisation flat or rising; no compound was filed as active; the % refers to the polarisation; negative = inhibition;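 note: % of control where 0% means no effect; inhibitors lower the polarisation; unlabelled MLL peptide was the positive control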
# D2 PAM: Beta-Arrestin HTS for Positive Allosteric Modulators of the Human D2 Dopamine Receptor: Potentiators. AID 624464, 2012. DiscoveRx D2 beta-arrestin cells, luminescence, 90 min; 100% = 57 uM dopamine signal. 360,000 tested, 0.23% active. potentiation, % (test concentration not listed). D(2) dopamine receptor (Homo sapiens), P14416; active = potentiation of 50% or more; inconclusive = 30% to 50%; inactive = 30% or less;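 note: compound concentration not given in the record; tested on top of an EC20 dose of dopamine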
# Target sequence (P14416 whole entry, looked up): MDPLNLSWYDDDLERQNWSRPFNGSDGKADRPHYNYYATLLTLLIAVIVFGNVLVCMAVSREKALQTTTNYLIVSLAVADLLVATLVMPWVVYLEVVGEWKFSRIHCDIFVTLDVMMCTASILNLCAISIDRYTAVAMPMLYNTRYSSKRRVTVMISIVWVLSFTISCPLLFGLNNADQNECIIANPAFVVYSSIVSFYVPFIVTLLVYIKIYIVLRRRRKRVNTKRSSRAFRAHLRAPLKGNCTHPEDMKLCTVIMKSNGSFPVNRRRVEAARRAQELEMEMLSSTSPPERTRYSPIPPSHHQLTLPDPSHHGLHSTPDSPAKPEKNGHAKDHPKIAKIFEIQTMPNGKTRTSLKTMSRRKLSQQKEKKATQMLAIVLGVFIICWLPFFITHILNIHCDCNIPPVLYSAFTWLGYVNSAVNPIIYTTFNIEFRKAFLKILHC
#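 PathHunter D2 cells, attached overnight at 37 deg C, received compound in DMSO plus dopamine at EC20 (50 nM final) for 90 min at 37 deg C. Beta-arrestin recruitment was read as luminescence after 1 h with detection reagent at ambient temperature.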
# Numbers without * were called inactive; ? = inconclusive; / = no result given; & = joins results of further samples; [ ] = another dose, or the depositor's remark.
Molecule	gsp antag	ClpP mod	Sfp inh	TRPV1 PAM	Menin MLL FP FL	gsp agonist	D2 PAM
CC1Cc2ccccc2N1S(=O)(=O)c1cccc(C(=O)N2CC(=O)Nc3ccccc32)c1 (stereo unspecified)	-12%	-5.4%	0%	1	5.2	?	-10
CCN(CC)CC(=O)NC1CCCc2c1cnn2-c1cc(F)cc(F)c1 (stereo unspecified)	-3%	0.3%	/	/	/	1%	-7
O=C(Cc1n[nH]c(=O)c2ccccc12)Nc1cccc(S(=O)(=O)N2CCCC2)c1	-5%	/	2%	16	2.6	-18%[15.4 µM]	-5
C=CCOC(=O)c1sc(NC(=O)c2ccc(OC)cc2)nc1C	5%	/	-3%	5	1.1	17%[15.4 µM]	-7
CC1CCCCN1C(=O)c1ccc(Br)o1 (stereo unspecified)	6%	-0.4%	4%	12	-0.7	-3%	-3
CC(C)(C)n1nc(-c2ccc(Cl)cc2)c2c(N)ncnc21	-9%	-24%&-24%	16%&23%&19%	-10	4.5	7%	0
O=c1[nH]nc(C(F)(F)F)c2nnn(Cc3ccccc3Cl)c12	-4%	-2.5%	3%	5	1.6	?	1
Cc1nnc(SCc2ccccc2)n1CC1CCCO1 (stereo unspecified)	5%	0.1%	9%	16	0.8	18%	-15
CCOC(=O)c1sc(NC(=O)CC)c(C#N)c1C	-2%	/	10%	-2	-1.3	15%	13
O=C(CN1CCCCC1)Nc1ccccc1	15%	0.8%	18%	4	1.6	-14%	0
COc1ccccc1NS(=O)(=O)c1cccc(NC(=O)Nc2ccccc2)c1	?	1.4%	9%	-11	8.7	-4%	2
CCCN1CCC(=O)N([C@H](CN=[N+]=[N-])CC(C)C)CC1	15%	-11%	3%	14	-1.6	/	-51
CC(C)CNC(=O)COC(=O)c1ccccc1SCC(=O)NCC(C)C	3%	0.4%	9%	5	-5.1	-2%[15.4 µM]	-1
O=C(CNC1CCCC1)Nc1ccc(S(=O)(=O)N2CCCCC2)cc1	10%	-2.3%	17%	?	3.0	9%[15.4 µM]	-8
O=C(CSCc1ccco1)NC1CCCC1	7%	-2.3%	-28%	6	8.3	4%	-3
Cc1nc2ccc(S(=O)(=O)NCC(=O)NCCc3ccc(Cl)cc3)cc2s1	6%	-0.1%	14%	?	-0.3	0%	-15
C=CCOc1ccc2c(c1)c(=O)cc(C(=O)O)n2CC	2%	?	14%	-1	1.3	-9%	-1
CCc1nc(SCc2ccc([N+](=O)[O-])cc2)n[nH]1	8%	-1.3%	14%	-5	-2.6	0%	0
COc1cc(NC(=O)C2CCCO2)c(OC)cc1Cl (stereo unspecified)	-1%	-0.4%	14%	4	5.7	?	-18
N/C(=N\OC(=O)COc1ccc(Cl)cc1)c1cccnc1	1%	-1.4%	2%	-1	-1.1	-20%	18
COc1cc(C2C3C(C)N(C)C(=O)N(C)C3N(C)C(=O)N2C)ccc1O (stereo unspecified)	-2%	?	6%	-3	0.5	-37%[inhibitor]	18
CCOc1ccccc1NC(=S)Nc1ccccc1F	-6%	-1.8%	?	-9	5.8	24%	-7
O=C(O)CNC(=O)C1CCCN1C(=O)CNC(=O)OCc1ccccc1 (stereo unspecified)	-5%	0.8%	0%	12	-16	-13%	-1
CCSc1nnc(COc2ccccc2)n1CC	0%	1.0%	11%	4	-4.5	3%	-14
Cc1cc(C)cc(C(=O)NCC(=O)N2CCC3(CC2)NCCc2[nH]cnc23)c1	3%	-0.5%	9%	3	1.7	-137%[inhibitor]	-13
OCCn1c(CSc2nc3ccccc3n2CCO)nc2ccccc21	-1%	-14%	15%	7	8.2	-31%[inhibitor]	-9
O=C(N1CCOCC1)N1CCCC(c2nc(-c3cccs3)no2)C1 (stereo unspecified)	-2%	-0.4%	16%	-5	2.0	15%	0
CCC(C)NC(=O)c1ccccc1NC(=O)Nc1ccccc1 (stereo unspecified)	-8%	-12%	6%	4	-0.3	-21%	-14
O=C1CCC(C(=O)N2CCN(c3cnccn3)CC2)CN1CCc1cccc(F)c1 (stereo unspecified)	7%	-22%	2%	-4	/	?	-3
O=C(CNc1ccc(Br)cc1)NC(=O)NC1CCCCC1	-10%	-0.6%	/	30	/	-11%	12

# (continued)
Molecule	gsp antag	ClpP mod	Sfp inh	TRPV1 PAM	Menin MLL FP FL	gsp agonist	D2 PAM
CCn1c(SCC(=O)c2ccccc2)nc2sc3c(c2c1=O)CCN(C)C3	-9%	/	50µM*	7	4.1	-19%[15.4 µM]	-10
C[C@H](CO)N1C[C@H](C)[C@@H](CN(C)S(C)(=O)=O)Oc2c(NC(=O)Nc3ccc(C(F)(F)F)cc3)cccc2C1=O	-20%	-4.1%	/	/	/	?	2
O=C(CSc1nc2[nH]c(=O)cc(O)c2s1)Nc1cccc(Br)c1	-4%	2.2%	/	?	/	7%	-4
O=C1C=C(c2ccc(O)cc2)C[C@@H](c2ccc(Cl)cc2)C1	-10%	-3.8%	/	3	/	/	-3
O=C(NC1=NCCS1)c1cccc(F)c1	11%	/	/	/	/	3%[15.4 µM]	-2
Cc1ccc2nc(SCC(=O)N(CC(C)C)c3c(N)n(Cc4ccccc4)c(=O)[nH]c3=O)[nH]c2c1	-1%	-0.4%	-1%	/	0.7	-39%[inhibitor]	4
CC(C)c1ccc(/C=C(\c2nc3ccccc3[nH]2)S(=O)(=O)c2ccccc2)cc1	-8%	-1.9%	20%	-1	8.0	?	-31
Cc1cccc(Nc2ncccc2C(=O)NCc2cccs2)c1C	?	0.6%	16%	3	2.1	9%	9
CC1(C)C2CCC1(C)C1(C2)NC(=O)c2ccccc2O1 (stereo unspecified)	-22%	0.6%	-8%	6	7.0	-3%[15.4 µM]	-3
CCCCCOC(=O)Cn1c(N2CCCCCC2)nc2c1c(=O)[nH]c(=O)n2C	-8%	1.1%	-5%	-2	1.2	6%	3
CCN(CC(=O)Nc1c(F)cccc1F)C(=O)CCCOc1ccccc1	3%	-2.3%	/	/	/	6%	2
N#Cc1ccc(CN2CCN(C(=O)c3ccccc3)CC2)c(Cl)c1	-13%	-0.4%	3%	-10	3.3	1%	-5
COc1ccc(S(=O)(=O)N2CCC(C(=O)NC(C)CCc3ccccc3)CC2)cc1 (stereo unspecified)	0%	/	-1%	-12	-4.2	-17%	-2
Cc1ccc(S(=O)(=O)/N=C2/NC(=O)/C(=C/c3ccccc3)S2)cc1	-21%	/	9%	5	-2.4	-22%	3
COc1ccc(C(=O)NCCNC(=O)c2cnccn2)cc1	4%	/	8%	7	-1.6	1%[15.4 µM]	-7
CCOC(=O)C1C(c2ccc(Cl)cc2)NC(=S)NC1(O)C(F)(F)F (stereo unspecified)	-5%	/	?	20	-2.0	-1%	-3
COc1ccc2c(C)cc(SCC(=O)NCCN3C(=O)CSC3=O)nc2c1	1%	0.3%	7%	-2	9.0	23%	4
O=C(O)CCSc1nnc(CNc2ccc(Cl)cc2)n1Cc1ccccc1	9%	1.1%	11%	6	-0.1	1%[15.4 µM]	-7
CCN1CCN(Cc2c(O)ccc3c2O/C(=C\c2ccccc2)C3=O)CC1	-15%	/	8%	-6	?	-4%	-12
Cc1cc(C)cc(N(CC(=O)NC(C)(C)C)C(=O)CCC(=O)Nc2ccccn2)c1	2%	-0.3%	-4%	5	0.1	-15%	7
CCCCSCCCNC(=O)CCCN1C(=O)c2ccccc2Sc2ncccc21	-4%	-3.7%	5%	1	6.7	9%[15.4 µM]	-5
O=C(COC(=O)Cc1ccc([N+](=O)[O-])cc1)NCc1ccc2c(c1)OCO2	13%	-1.0%	/	/	/	10%	-3
COc1cc2c(cc1NC(=O)c1cccc(F)c1)CCCC2	-22%	-2.3%	-5%	5	3.3	?	-13
CN(Cc1ccon1)C(=O)c1ccc2nc(Cc3cccc(Cl)c3)oc2c1	3%	-0.2%	6%	?	-3.1	-71%[inhibitor]	-1
CCN(CC)c1ccc(/C=N/OCC(=O)Nc2cccc(C)c2)cc1	-12%	?	0%	19	?	10%	6
CCC(Sc1nnc2c3ccccc3n(CC)c2n1)C(=O)Nc1sc2c(c1C#N)CCCC2 (stereo unspecified)	21%	0.4%	?	-2	18	-9%	-36
COc1cc(CN2CCCC(C(=O)c3ccc(SC)cc3)C2)cc(Cl)c1O (stereo unspecified)	-9%	-0.1%	2%	3	-4.7	-33%[inhibitor]	-1
Nc1nc2sc3c(c2c(=O)s1)CCCC3	-4%	0.6%	12%	-16	3.0	-38%[inhibitor]	-10
CN(C)c1ccc(S(=O)(=O)NCC(=O)OCC(=O)Nc2cccc(Cl)c2)cc1[N+](=O)[O-]	0%	1.3%	9%	2	5.6	3%	-22
NC(=O)COC(=O)CC(c1ccccc1)c1ccccc1	-2%	/	5%	-26	0.8	4%[15.4 µM]	4
CCN(CC1CCCN(CCc2cccc(F)c2)C1)C(=O)c1ccoc1C (stereo unspecified)	/	-1.5%	/	/	/	-87%[inhibitor]	-51
COc1ccc(-c2cc(C)no2)cc1S(=O)(=O)NCC(C)c1ccccc1 (stereo unspecified)	-13%	-2.5%	12%	?	/	-25%	-8
Cc1ccc(C(CC(N)=O)c2ccco2)cc1 (stereo unspecified)	-7%	1.2%	20%	9	-0.5	-30%[inhibitor]	9
